High-throughput results from PubChem.
Biofilm kill mix: mixtures killing C. albicans biofilm | actives 0.02% (n = 120,000) | C. albicans biofilm persisters + clotrimazole, fluorescence viability; primary screen in compound mixtures of four per well | AID 1242 | inhibition, % at 7.6 µM;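 active means inhibition above 30.3% in the primary screen of four-compound pools, then above 30% when the compound was retested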;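 further: compounds exposed to preformed 24 h biofilms for 48 h; the number belongs to the whole pool; some results filed as inactive read as strong as hits; inactives centre near 12; 0% = biofilm with clotrimazole alone and 100% = kill control; retested singly at about 60 µM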
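Assay system: C. albicans biofilms / Medium: RPMI/MOPS medium, pH 7.0 / Schedule: biofilm formation 24 h, compound exposure 48 h, 37 °C / Measured by: Alamar Blue fluorescence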
Starred values were filed as active, the others as inactive; & = joins results of further samples.

SMILES | Biofilm kill mix
COCCCNC(=O)Cn1c(=O)n(CCCCCC(=O)Nc2ccccc2)c(=O)c2sccc21 | 11
O=C(Nc1cc(C(=O)N2CCCC2)ccc1N1CCCC1)C1CC1 | 12
N#C/C(C(=O)N1CCCCC1)=C1/N=C(N)c2ccccc21 | 10
O=c1[nH]c2ccccc2s1 | -10
CCOC(=O)c1nc(Nc2cccc(C)c2)c2ccccc2n1 | 16
O=C1CSC(c2ccccc2Cl)N1 (configuration not stated) | 10
CCOc1ccc(N/C(C)=C\C(=O)c2ccc3c(c2)OCCO3)cc1 | 11
CN1CCN(C(=O)CSc2nc(-c3ccco3)cc(C(F)(F)F)n2)CC1 | 19
COc1ccnc(-n2cccc2C#N)c1C#N | 15
COc1cc(/C=N/OCC(=O)NC23CC4CC(CC(C4)C2)C3)ccc1OCc1ccccc1 | 15
CCOC(=O)c1sc(NC(=O)CSc2nc3ccccc3s2)c(C(=O)OCC)c1C | 4
Cc1nnc(SC(C)C(=O)Nc2ccc(S(=O)(=O)NC3CCCCC3)cc2)s1 (configuration not stated) | 11
O=C(CSCc1c[nH]c(=O)[nH]c1=O)OCC(=O)c1ccc(Br)cc1 | 3
O=C1C=CC(=O)N1Nc1ccc(Br)cc1 | 12
N#Cc1ccccc1OCC(=O)OCC(=O)N1CCN(C(=O)c2ccco2)CC1 | 13
COc1cccc(N=Nc2c(=O)[nH]n3c(C)cc(C)nc23)c1 | -5
Cc1onc(-c2ccccc2)c1CNC(=O)Nc1ccc(F)cc1F | 17
c1ccc(OCc2nnc(-c3ccccc3)o2)cc1 | 10
CC12CCC(C(=O)N3CCCc4ccccc43)(OC1=O)C2(C)C (configuration not stated) | 8
COc1ccc(-n2cnc3cc(N)ccc32)cc1 | 13
CCOc1ccc(-n2cc(-c3ccccc3)c3c(=O)[nH]cnc32)cc1 | 8
CC(C)(C)OC(=O)NNC(=O)Nc1ccccc1C(F)(F)F | 6
COc1ccc(CC(=O)NCCC(C)C)cc1S(=O)(=O)N1CCOCC1 | 8
CCc1ccc(-c2cn3c(n2)SCC3)cc1 | -10
Cc1ccccc1Nc1nc(N)nc(COC(=O)c2cccc(S(=O)(=O)N(C)C)c2)n1 | 15
More compounds follow.
SMILES | Biofilm kill mix
C=CCn1c(=S)[nH]c2sccc2c1=O | 5
Cn1nc([N+](=O)[O-])nc1Sc1nnnn1-c1cccc(C(=O)O)c1 | 16
CNC(=S)N1CCC(NC(=O)c2ccco2)CC1 | 17
Cc1cc(C)n(CCNC(=O)CC2C(=O)NCCN2Cc2ccc(C)o2)n1 (configuration not stated) | 16
Cc1ccc(C(=O)N2CCN(Cc3ccc4c(c3)OCO4)CC2)cc1[N+](=O)[O-] | 14
COc1ccccc1N(C)S(=O)(=O)c1ccc(C(=O)NC2CCCCCC2)cc1 | -2
Cc1ccc(CNC(=O)CCC2CCCN(Cc3c(C)nn(C(C)C)c3C)C2)o1 (configuration not stated) | -1
COC(=O)c1sc(SC)c(S(=O)(=O)C(C)C)c1N/N=C(\C#N)S(=O)(=O)c1ccccn1 | 14
Cc1ccnc(NS(=O)(=O)c2ccc(NS(=O)(=O)c3ccccc3)cc2)n1 | 7
CCCCC(CCCC)=N/N=C/c1c(O)n(CC)c2cc(C3=NNC(=O)CC3)ccc12 | 4
CN1CCN(C(=O)/C(=C\c2cccs2)NC(=O)c2ccco2)CC1 | 13
COc1cc2c(cc1OC)CN(C(=O)c1cccc([N+](=O)[O-])c1)CC2 | 11
CC(C[N+](C)(C)C)OC(=O)C1(c2ccccc2)CCCC1 (configuration not stated) | 15
FC(F)(F)c1cccc(Cc2noc(CN3C[C@@H]4CCC[C@H]3C4)n2)c1 | 15
Cc1cc(C)cc(NC(=O)C(NCC2CCCO2)c2ccccc2)c1 (configuration not stated) | 19
Cc1nn(-c2ccccc2)c(C)c1/C=N/n1c(-c2ccccc2Br)n[nH]c1=S | 30
CN(CC(=O)NCc1ccncc1)S(=O)(=O)c1ccc2ccccc2c1 | 8
O=C(c1ccco1)N1CCN(Cc2cccc([N+](=O)[O-])c2)CC1 | 6
Nc1nc(Cl)cc(Oc2ccccc2F)n1 | 14
NC(=O)C1(N2CCCCC2)CCN(C(=S)Nc2ccc(F)c(Cl)c2)CC1 | 0
O=C(c1ccco1)n1nc(-c2cccnc2)nc1NCc1ccco1 | 18
N#Cc1c(NC(=O)CSc2nc(N)cc(=O)[nH]2)sc2c1CCCC2 | 63
CCOC(=O)c1c(C)[nH]c(C)c1C(=O)CSc1nc2ccccc2c(=O)n1-c1ccc(CC)cc1 | 14
CC(=O)Nc1ccc(NC(=O)C(C)OC(=O)C2CC3C=CC2C3)cc1 (configuration not stated) | 11
O=C(NC(=S)NCCC1=CCCCC1)c1ccccc1Br | 24
More results follow.
SMILES | Biofilm kill mix
COC(=O)c1cn(-c2cccc(C)n2)cn1 | 11
CCOC(=O)C1=C2NC(=O)c3ccccc3N2C(=O)C1 | 12
Cn1c(N)c(C(=O)c2cc(-c3ccncc3)nc3ccccc23)c(=O)n(C)c1=O | 11
O=C(O)CCc1nnc(SCC(=O)Nc2ccc(Br)cc2)[nH]c1=O | 11
O=C(O)Cc1ccc(C(=O)c2ccc(Cl)cc2Cl)s1 | -1
Cc1nc(-c2ccc(Cl)cc2)sc1C1(C)CC(c2cccc(F)c2)=NO1 (configuration not stated) | 8
Cc1ccccc1OCC(=O)Nc1cccc2nsnc12 | 8
Cc1ccc(C)c(NS(=O)(=O)c2ccc3[nH]c(=O)oc3c2)c1 | 14
CC(=O)c1cc(-c2ccccc2)n(CC(=O)Nc2cc(C)cc(C)c2)c1C | 13
O=C(Nc1ccccc1)N1CCC(=S)Nc2ccccc21 | 19
O=C(NNC(=S)Nc1ccccc1)c1ccccc1[N+](=O)[O-] | 10
COC(=O)C(=O)/C=C(\O)c1c(C)cc(C)cc1C | 20
CCC(Br)C(=O)Nc1ccc(OC)cc1 (configuration not stated) | 8
C#CCOCCOCCOCCNc1nc(N2CCOCC2)nc(N2CCN(C(=O)[C@H](CCCCN)n3cc([C@@H](N)CC(C)C)nn3)CC2)n1 | 16
CCOc1ccc2nc(N(CCN(CC)CC)C(=O)c3cccc([N+](=O)[O-])c3)sc2c1 | 11
Cc1ccc(-c2nnc(N3CCC(C)CC3)c3ccccc23)cc1 | -1
CC(C)(Oc1ccc(CCNC(=O)c2ccc(-c3ccccc3)o2)cc1)C(=O)O | 25
CCC(c1nnc(SCC(=O)Nc2cccc(S(N)(=O)=O)c2)n1Cc1ccccc1)N(C)C (configuration not stated) | 16
Cc1oc(-c2cc(F)ccc2F)nc1CN(C)Cc1ccc2nccnc2c1 | 14
Cc1nn(Cc2ccc(C(=O)Nc3ccccc3F)cc2)c(C)c1Cl | 11
Nc1nc(-c2ccccc2)nc2sc3c(c12)CCCC3 | 15
O=C(NCCN1C(=O)S/C(=C/c2cccnc2)C1=O)C1CC(=O)N(Cc2ccccc2)C1 (configuration not stated) | 11
C=CCn1nc(-c2ccccc2)c(N2CCCCC2)cc1=O | 9
COc1ccc2c(C)cc3n[nH]c(=S)n3c2c1 | 16
Cn1c(-c2cc(Cl)ccc2O)nc2c1c(=O)[nH]c(=O)n2Cc1ccccc1 | 2

Brought forward from above: 3 compounds, followed by the next part.
SMILES | Biofilm kill mix
C=CCn1nc(-c2ccccc2)c(N2CCCCC2)cc1=O | 9
COc1ccc2c(C)cc3n[nH]c(=S)n3c2c1 | 16
Cn1c(-c2cc(Cl)ccc2O)nc2c1c(=O)[nH]c(=O)n2Cc1ccccc1 | 2
CCCc1nn2c(N)c(/C=C3\C=Nc4ccccc43)c(=O)nc2s1 | 7&4
Cc1cc(C)cc(NC(=O)OCCN2CCN(Cc3ccccc3)CCC2=O)c1 | -3
Cc1ccc(CSCC(=O)NCCc2ccccc2)cc1 | 15
S=C(NCc1ccncc1)Nc1ccccc1 | 7
CCOC(=O)c1c(Cc2cccc(Cl)c2)c[nH]c1C | -1
Nc1c(C(=O)O)sc2nc(-c3ccccc3)cc(-c3ccc(Cl)cc3)c12 | 10
CON/C=N/C(=S)Nc1ncc(C(F)(F)F)cc1Cl | -8
CCCn1nnnc1NCc1ccc(N2CCCC2)cc1 | 12
N#C/C(=C\Nc1ccc2c(c1)OCCO2)c1nc(-c2ccccc2)cs1 | 3
O=C(COc1ccccc1F)NCC(c1ccco1)N1CCCC1 (configuration not stated) | -1
CCc1ccc(-c2cc(N)n(-c3ccccc3)n2)cc1 | 18
O=C(c1cc2cccc([N+](=O)[O-])c2oc1=O)N1CCOCC1 | 16
CCOC(=O)NN1C(=O)c2ccccc2NC1C (configuration not stated) | 17
CCC(=O)Nc1ccc(Cl)c(NC(=O)c2cccc(OC)c2)c1 | 8
CCOC(=O)c1sc2nc(COC(=O)c3c(F)cccc3F)[nH]c(=O)c2c1C | 23
COc1ccc(C(=O)COC(=O)COc2ccc(C)c(C)c2)cc1 | 6
C=CCn1c(C)csc1=Nc1ccccc1C | 5
N#Cc1ccc(OCC(O)CS(=O)(=O)c2ccccc2)cc1 (configuration not stated) | 12
Cc1cc2cc(C)c(NCCNC(=O)c3ccccc3Cl)nc2cc1C | 4
Cc1nc(-c2ccc(Cl)cc2)sc1C1(C)CC(c2ccc(C#N)cc2)=NO1 (configuration not stated) | 11
Cc1onc(-c2ccccc2)c1C(=O)N=C(N)c1ccc(C(F)(F)F)cc1 | 33
CC(=O)Nc1ncc(Cc2ccc(Cl)cc2Cl)s1 | 13
O=C(O)CCc1ccc(-c2ccc(Br)cc2)n1NC(=O)c1ccc([N+](=O)[O-])cc1 | 24
CCOC(=O)c1nnn(CC(=O)NC(=O)Nc2ccccc2)c1C(=O)OCC | 3
COC(=O)/C=c1\[nH]c2nnc(C)n2c1=O | -1
Next part
SMILES | Biofilm kill mix
O=C(O)CCC(=O)NNC(=O)COc1cccc(Cl)c1 | 12
Cc1nnc(Sc2nc3c(c(=O)[nH]c(=O)n3C)n2Cc2ccccc2)s1 | 13
COC(=O)c1ccc2c(=O)[nH]c(CSc3nc(C)cs3)nc2c1 | 0
Cc1cccc(C)c1NC(=O)/C(C#N)=C/c1ccsc1 | 10
CC12CCC(O)CC1=CCC1C2CCC2(C)C1CCC21CCC(=O)O1 (configuration not stated) | 13
Cc1nc(CC(=O)N/N=C/c2ccc(OCC(=O)O)cc2)cs1 | 14
CCOC(=O)CC(NC(C)=O)c1ccc([N+](=O)[O-])cc1 (configuration not stated) | 9
Fc1ccc(NC(=S)NCCN2CCOCC2)c(F)c1F | 14
Cc1cccc(NC(=O)CSc2ccc(-c3ccc4c(c3)OCO4)nn2)c1C | 2
O=C(Oc1c(Cl)cc(Cl)c2cccnc12)c1cccs1 | 11
CCC(=O)N=c1sc2cc([N+](=O)[O-])ccc2n1CCOC | 11
Cn1c(N)c(C(=O)COC(=O)C2CC(=O)N(Cc3ccccc3)C2)c(=O)n(C)c1=O (configuration not stated) | 3
CC(C)(C)OC(=O)C(C)(C)O/N=C(\C(=O)O)c1csc(N)n1 | -2
Cc1cccc(-n2nnnc2SCC(=O)NCC2CCCO2)c1 (configuration not stated) | 11
CC(OC(=O)c1ccc(Cl)c(S(=O)(=O)N2CCc3ccccc32)c1)C(=O)Nc1ncc(Cl)cc1Cl (configuration not stated) | 9
C#Cc1ccc([C@H]2C=C(C(=O)OCC=C)O[C@@H](OCC)[C@@H]2CCCO)cc1 | 24
CN(C)c1ccc(/C=N/NC(=O)c2ccc(NC(=O)c3ccccc3)cc2)cc1 | 16
O=C(COC(=O)c1ccncc1)c1ccc(Cl)c(Cl)c1 | 25
O=C(Nc1nc(-c2cccnc2)cs1)c1ccccc1[N+](=O)[O-] | 10
COc1ccc(NC2c3ccccc3C(=O)N2c2cccnc2)cc1 (configuration not stated) | 17
Cc1cc(=O)[nH]c(SCC(=O)N2CCC(Cc3ccccc3)CC2)n1 | 11
O=C(CSCc1ccc([N+](=O)[O-])cc1)Nc1ccc(S(=O)(=O)N2CCCCCC2)cc1 | 12
COCCN1C(=O)N[C@@H](c2cccc(F)c2)C(C(=O)OC)=C1C | 22
CCOC(=O)N1CCN(Cc2nc(-c3cccc(Cl)c3)no2)CC1 | -10
COc1ccc(O)c(C2=Nc3ccccc3N=C(c3cccs3)C2)c1 | 13

For reference, some entries already given.
SMILES | Biofilm kill mix
COCCCNC(=O)Cn1c(=O)n(CCCCCC(=O)Nc2ccccc2)c(=O)c2sccc21 | 11
O=C(Nc1cc(C(=O)N2CCCC2)ccc1N1CCCC1)C1CC1 | 12
N#C/C(C(=O)N1CCCCC1)=C1/N=C(N)c2ccccc21 | 10

In a second layout: three of the compounds above.
mol	Biofilm kill mix
CN(C)c1ccc(/C=N/NC(=O)c2ccc(NC(=O)c3ccccc3)cc2)cc1	16
O=C(CSCc1ccc([N+](=O)[O-])cc1)Nc1ccc(S(=O)(=O)N2CCCCCC2)cc1	12
CCOC(=O)CC(NC(C)=O)c1ccc([N+](=O)[O-])cc1 (configuration not stated)	9

Next section
SMILES | Biofilm kill mix
C/C(Cn1cnc([N+](=O)[O-])n1)=N\NC(=O)c1ccc(O)cc1O | 27
CC(C)CCCC(C)CCOC(=O)CN1CCCC1 (configuration not stated) | 9
Cc1cccc(NC(=O)C(=O)NCCc2c[nH]c3ccccc23)c1C | 11
CC(C)NC(=O)NC(=O)COC(=O)c1ccccc1F | 10
O=C(Nc1ccc(Cl)c(Cl)c1)N1N=CCC1c1ccccc1 (configuration not stated) | 26
CCN(CC)c1ccc(C(=O)OCC(=O)Nc2ccccc2-c2ccccc2)cc1 | 15
CCOC(=O)N/N=C/C=C/c1ccccc1[N+](=O)[O-] | 5
CC(C)(C)CC(=O)NCc1cccs1 | 9
Cc1ccc(N(CC(=O)Nc2ccccc2-c2ccccc2)S(=O)(=O)c2ccccc2)c(C)c1 | 13
CCS(=O)(=O)N1CCN(c2ccc(C(=O)NC34CC5CC(CC(C5)C3)C4)cc2[N+](=O)[O-])CC1 | 18
Cc1ccc2c(c1)NC(c1cccs1)C1=C(CC(C)(C)CC1=O)N2 (configuration not stated) | -1

A portion of the library. The share of hits here may be higher or lower than overall.
